# Vif TR-FRET = HIV-1 Vif–A3G interaction blockers – biochemical, TR-FRET, GST-Vif 1-94, biotin-A3G peptide, dose response retest, primary screen (AID 1117319). TR-FRET GST-Vif / biotin-A3G peptide binding; higher % means a stronger effect; test concentration not given here; strong numbers were not always called active. one-dose inhibition, %; IC50 in µM for titrated hits. 260,000 tested, 0.57% active;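 active = above the screen mean plus three standard deviations and confirmed in dose response; inconclusive = results disagree or hit not tested in dose response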;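 note: Vif residues 1-94 fused to GST binding biotinylated APOBEC3G peptide 110-148; 0% = full assay without inhibitor and 100% = GST in place of GST-Vif; retest series ran down from 100 µM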
# Calb FLC = affects C. albicans growth with fluconazole. 300,000 tested, 0.57% active. growth inhibition, % (concentration not given with the values). AID 1979. C. albicans CaCi-2 (fluconazole-resistant clinical isolate) + fluconazole, Alamar Blue growth, 48 h;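 active = most replicates above 75%; inconclusive = exactly half above 75%; inactive = most below 75%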;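 note: all wells also contain fluconazole at 8 µg/ml as a sub-toxic cotreatment; 0% = median of DMSO wells and 100% = median of geldanamycin control wells; wells of about 8 µL received 7.5 nL stock; the first replicate is given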
# HNF4A DNA FP = change in binding of human HNF4 alpha to DNA; P41235; HNF4a-FITC DNA binding, fluorescence polarization, 1 h; activity change, % at 10 µM; 360,000 tested, 0.3% active; in the data active = activity change above about 30%, passing the limit was not always enough;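 note: controls were the assay level and a saturating level of protein; the project sought stronger binding though the title names inhibitors; some compounds called inactive have numbers as strong as hits; positive values seem to mean higher polarization but the record does not say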
# Target sequence (P41235 whole entry, looked up): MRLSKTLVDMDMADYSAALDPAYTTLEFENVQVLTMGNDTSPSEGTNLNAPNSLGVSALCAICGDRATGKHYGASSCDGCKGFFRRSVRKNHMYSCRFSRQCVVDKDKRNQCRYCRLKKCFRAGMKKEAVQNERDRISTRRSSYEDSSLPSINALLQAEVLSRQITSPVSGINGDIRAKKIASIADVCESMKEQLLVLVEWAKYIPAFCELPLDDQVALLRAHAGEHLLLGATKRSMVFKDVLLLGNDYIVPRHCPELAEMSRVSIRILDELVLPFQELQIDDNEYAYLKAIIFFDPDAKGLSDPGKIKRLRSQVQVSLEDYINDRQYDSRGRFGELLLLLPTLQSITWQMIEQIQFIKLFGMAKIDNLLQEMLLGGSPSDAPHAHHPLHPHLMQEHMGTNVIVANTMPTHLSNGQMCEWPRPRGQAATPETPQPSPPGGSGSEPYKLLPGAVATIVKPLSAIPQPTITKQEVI
# Beta2AR agonist = activates human beta-2 adrenergic receptor causing internalization; Am2.2-beta2AR cells, FAP receptor internalization, flow cytometry; reference of the scale not given here; response, % (test concentration not listed); 340,000 tested, 0.43% active;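 active = response above a set limit, near 3 SD of response in nonfluorescent compounds, cut at about 42% in these data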;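 note: stock transfer was 100 nL into about 11 µL; a reference agonist was the positive control; negative values mostly stem from fluorescent compounds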
# Target sequence (P07550 whole entry, looked up): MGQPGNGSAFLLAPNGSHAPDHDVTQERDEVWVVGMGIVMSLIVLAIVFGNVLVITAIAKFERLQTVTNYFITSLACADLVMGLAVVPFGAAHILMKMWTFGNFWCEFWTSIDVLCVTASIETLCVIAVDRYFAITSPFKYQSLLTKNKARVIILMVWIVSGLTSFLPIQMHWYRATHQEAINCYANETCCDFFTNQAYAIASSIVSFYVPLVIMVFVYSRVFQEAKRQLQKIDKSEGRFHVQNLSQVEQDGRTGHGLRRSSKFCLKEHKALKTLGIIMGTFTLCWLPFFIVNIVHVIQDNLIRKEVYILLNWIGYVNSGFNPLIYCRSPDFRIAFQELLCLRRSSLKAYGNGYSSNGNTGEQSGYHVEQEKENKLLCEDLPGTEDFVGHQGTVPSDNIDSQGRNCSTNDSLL
# ALR inh = inhibitors of human sulfhydryl oxidase ALR; purified ALR, DTT oxidation, H2O2 HRP-luminol luminescence; inhibition, % (concentration not given with the values); 290,000 tested, 3.8% active; AID 485317;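 active = mean and each replicate at 75% or more; inconclusive = only one of the two met; inactive = neither met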;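 note: stock transfer was 7.5 nL into about 7.5 µL; 0% = neutral wells and 100% = wells with inactivated enzyme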
# Target sequence (P55789 whole entry, looked up): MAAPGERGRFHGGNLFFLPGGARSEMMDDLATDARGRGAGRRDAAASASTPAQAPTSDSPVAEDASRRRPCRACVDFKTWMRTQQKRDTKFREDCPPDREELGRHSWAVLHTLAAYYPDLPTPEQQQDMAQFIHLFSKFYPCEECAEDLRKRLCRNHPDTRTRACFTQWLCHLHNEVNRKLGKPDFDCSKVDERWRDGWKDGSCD
# RanGTP-Impb inh = inhibitors of RanGTP-importin-beta interaction, primary screen, biochemical, FRET, CFP-Ran, YFP-importin-beta, homogeneous. cell-free CFP-Ran/YFP-importin-beta FRET ratio. inhibition, % (no concentration beside the values). 300,000 tested, 1.1% active;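 active = most replicates above 15%; inconclusive = exactly half above 15%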;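 note: 0% = DMSO wells and 100% = Ran loaded with GDP instead of GTP; wells of about 40 µL received 100 nL stock; the first replicate is given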
# LANA-H2B inh = blocks KSHV LANA binding to histone H2A/H2B; cell-free LANA-H2A/H2B peptide, fluorescence polarization; inhibition, % (concentration not given with the values); 320,000 tested, 0.6% active; AID 2629; in the data active = inhibition mostly above about 10%, no sharp cut-off; inactive = mostly below about 6.7%;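 note: stock transfer was 7.5 nL into about 10 µL; 0% = median of vehicle wells and 100% = median of positive control wells; one replicate is shown; the record names a cut of 25% in any replicate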
# Active calls of the source: *; u = inconclusive; x = no result given; & = joins results of further samples. Random draw from the library; any-hit rate near 6.3%.
# Values in the order: Vif TR-FRET	Calb FLC	HNF4A DNA FP	Beta2AR agonist	ALR inh	RanGTP-Impb inh	LANA-H2B inh
1) N/C(=N\OC(=O)c1ccc2ccccc2c1)c1ccccc1Cl
→ 2%	25	2.7	-7	-1	2.3	-0.6
2) Cc1ccc(CNC(=O)C23CN(Cc4ccccc4)CC2C(c2ccc([N+](=O)[O-])cc2)=NO3)cc1 (centres undefined)
→ 3%	4	0.0	-6	-2	2.5	-4.0
3) Cc1nn(-c2ccccc2)c(N)c1N=Nc1ccc2ccccc2c1
→ 22%	-7	3.2	7	-17	4.7	4.2
4) Cc1ccc(S(=O)(=O)CC(=O)Nc2ccc3nc(C)sc3c2)cc1
→ x	41	1.5	-18	-2	0.5	-3.4
5) O=C1c2ccccc2C(=O)N1CCN1CCc2ccccc21
→ 4%	-4	-3.6	11	14	-3.9	2.8
6) Fc1ccc(CNC(=S)NC2CCCCCC2)cc1
→ x	-28	2.9	-10	-1	-2.4	0.8
7) O=C(COC(=O)c1ccc(F)cc1F)NCc1ccc2c(c1)OCO2
→ x	x	-0.6	7	-5	x	5.4
8) c1ccc(CSc2nnc(-c3cccnc3)o2)cc1
→ 14%	0	-0.2	3	-2	-4.9	-1.7
9) CCn1c(SCC(=O)N/N=C(/C)c2ccncc2)nc2ccccc21
→ 8%	0	2.1	-3	1	6.4	-0.4
10) CN(C(=O)COC(=O)C1CCN(S(=O)(=O)c2ccc(Cl)cc2)CC1)C1CCS(=O)(=O)C1 (centres undefined)
→ -6%	x	0.1	-10	-11	x	2.0
11) CC1=CSC2=NC(C(F)(F)F)(C(F)(F)F)NC(=O)N12
→ 0%	-1	4.1	-4	x	6.7	-2.6
12) CCOC(=O)COc1ccc2c(C)cc(=O)oc2c1C(=O)c1ccccc1
→ 6%	2	-3.1	13	0	4.0	4.1
13) CCOC(=O)CN(C(=O)COc1nc(-c2ccccc2)cc(C)c1C#N)c1ccc(F)cc1
→ 32%	5	-0.5	-1	-17	7.1	-6.9
14) COc1ccc(CC(=O)OCC(=O)NC2CCCCC2)cc1OC
→ -6%	x	-1.8	-4	-2	x	1.0
15) O=C(O)C1CCN(C(=O)COc2ccc3c4c(c(=O)oc3c2)CCCC4)CC1
→ x	1	0.8	-15	-8	0.6	2.2
16) NNC(=S)NCc1ccc2c(c1)OCO2
→ 15%	-34	-0.2	3	7	-2.9	1.0
17) COc1cccc(CN2CCN(Cc3cccc4nonc34)CC2CCO)c1 (centres undefined)
→ -3%	-3	-0.8	-4	1	-1.0	-2.6
18) COC(=O)c1cc(C(=O)Nc2nc3ccccc3[nH]2)cc([N+](=O)[O-])c1
→ 26%	-4	0.5	-7	-1	-1.7	3.0
19) CN1CCN(C(=O)c2ccc3nc(-c4ccccc4)c(-c4ccccc4)nc3c2)CC1
→ 6%	9	2.3	-1	-14	8.4	-0.6
20) COc1ccc(S(=O)(=O)Nc2cc3[nH]c(=O)oc3cc2C)cc1
→ 4%	3	-3.2	-11	-14	-3.9	-0.2
21) CC1(C)CC(=O)C=C(c2cccc(O)c2)C1=O
→ x	x	3.6	4	12	x	0.8
22) Cc1cc(=O)oc2cc(NC(=O)C3CCCC3)ccc12
→ 10%	18	2.3	7	7	-6.6	-2.5
23) CCCOc1ccc([N+](=O)[O-])cc1C1NC(=S)NC(c2ccccc2)=C1C(=O)OCC (centres undefined)
→ 4%	-3	-3.2	2	0	-0.7	0.0
24) COc1ccc(C(O)c2nc3ccccc3n2C(C)C)cc1 (centres undefined)
→ 31%	-3	0.2	-8	x	3.7	1.4
25) Cc1ccc(N=Cc2c(O)[nH]c3ccccc23)c([N+](=O)[O-])c1
→ 1%	u	-15	3	1	5.0	1.3
26) CCNC(=S)/C(=C(/[O-])c1ccc([N+](=O)[O-])cc1)[n+]1ccccc1
→ u	14	-27	1	99*	2.3	1.0
27) CC(C)c1ccc(NC(=O)C(c2ccc3c(c2)OCO3)N2CCN(C(=O)c3ccco3)CC2)cc1 (centres undefined)
→ 15%	8	-1.7	12	-6	4.9	-6.4
28) O=C(Nc1ccc(S(=O)(=O)N2CCCC2)cc1)c1ccc(Br)o1
→ -5%	-18	-0.1	-3	16	1.1	-2.1
29) CCCOc1cc(N)ccc1C(=O)OCCN(CC)CC
→ x	x	-0.4	5	2	x	-0.4
30) Cc1ccc(Cn2c(NC(=O)c3ccco3)nc3ccccc32)cc1
→ u	0	-1.3	-13	x	1.1	-4.3
31) Cc1ccc(S(=O)(=O)N2CCN(S(=O)(=O)N3CCCCCC3)CC2)cc1
→ u	22	-12	5	-7	-1.0	0.0
32) Cc1ccc(-n2c(=S)[nH]c3sc4c(c3c2=O)CCc2ccccc2-4)cc1
→ 8%	21	-1.5	2	-23	-1.6	3.6
33) COC(=O)c1ccc(/C=N/NC(=O)CCSc2nc3ccccc3s2)cc1
→ x	9	x	x	4	u	1.4
34) COc1ccc(/C(O)=C2/C(=O)C(=O)N(Cc3ccco3)C2c2cccs2)cc1 (centres undefined)
→ -3%	7	0.3	-1	6	2.8	5.1
35) O=C(CNc1ccccc1)NN=C1CCCC1
→ 3%	13	-8.8	-8	14	3.8	6.1
36) CCc1ccc(-c2cn3c(n2)SCC3)cc1
→ x	7	0.7	-4	-2	-3.2	-1.3
37) COc1ccc(CC(NC(C)=O)C(=O)NC2CCN(c3nnnn3-c3ccccc3)CC2)cc1OC (centres undefined)
→ -1%	-2	x	x	-4	1.1	1.9
38) Cc1ccc(C(=O)O/N=C(\N)c2ccc(Br)cc2)cc1C
→ 0%	-1	1.9	-6	1	5.8	-2.6
39) Cc1ccc(-c2nnn(CC(=O)N(c3ccccc3)C(C(=O)NC(C)(C)C)c3cccs3)n2)o1 (centres undefined)
→ -1%	-3	1.3	4	-7	-0.6	0.4
40) S=c1[nH]c2ccc(Cl)cc2s1
→ 0%	6	0.1	-3	99*	2.4	0.2
41) COc1ccc(-c2cc(C(=O)N3CCN(c4ccccc4)CC3)no2)cc1OC
→ 6%	15	-1.4	0	1	2.0	-3.2
42) Cc1ccc(CONC(=O)c2cccc([N+](=O)[O-])c2)cc1
→ -11%	x	1.0	-1	x	x	6.0
43) CC1N(C)c2cc(NC(=O)c3cccs3)c(P(=O)(Nc3ccc([N+](=O)[O-])cc3)N3CCOCC3)cc2C1(C)C (centres undefined)
→ -3%	74	1.4	2	-6	0.3	9.2
44) Cc1ccc(NC(=O)Nc2ccc3c(c2)OCO3)cc1F
→ 5%	-9	-1.7	-5	-3	-0.8	2.3
45) Cc1ccc(NC(=O)Cc2cn(C)c3ccccc23)cc1F
→ -6%	-24	0.0	8	5	-5.8	4.2
46) NC(=O)Nc1ccc(C(=O)OCC(=O)Nc2sccc2C(N)=O)cc1
→ -2%	x	2.7	-1	x	x	x
47) O=C(CCn1c(=O)oc2ccccc21)NCCN1CCOCC1
→ x	2	1.3	-3	-11	2.6	-4.1
48) Nn1c(Nc2ccccc2)nc2sc3c(c2c1=O)CCCC3
→ x	35	2.4	-2	81*	1.2	2.3
49) O=C1C(C=NCc2ccco2)=C(O)c2ccccc21
→ 24%	-1	-1.7	-7	4	0.4	2.2
50) CN(Cc1ccccc1)C(=O)CNC(=O)Cn1cnc2ccccc2c1=O
→ u	18	-1.2	-5	-2	1.9	-2.1

# Following part
# Values in the order: Vif TR-FRET	Calb FLC	HNF4A DNA FP	Beta2AR agonist	ALR inh	RanGTP-Impb inh	LANA-H2B inh
51) Cc1ccc(C2C3=C(CCCC3=O)Nc3[nH]c(=S)[nH]c(=O)c32)cc1 (centres undefined)
→ 15%	28	-1.4	-3	x	2.8	-0.2
52) COc1ccc(CCNS(=O)(=O)CCNC(=O)c2ccc3c(c2)OCO3)cc1OC
→ -3%	-8	0.0	-1	6	-0.5	0.4
53) COc1cc(NC(=S)NCCCN2CCOCC2)c(OC)cc1Cl
→ -8%	4	-1.8	1	x	-3.3	-3.0
54) C[C@H](CO)N1C[C@H](C)[C@@H](CN(C)S(=O)(=O)c2cccs2)Oc2c(NS(=O)(=O)c3ccccc3)cccc2C1=O
→ x	x	0.8	1	-13	x	10
55) O=C(CSc1nnc(-c2ccncc2)n1CCc1ccccc1)N1CCCC1
→ x	2	x	x	-2	1.2	-0.5
56) Cc1nn(-c2ccccc2)c(Cl)c1C(=O)N1CCN(c2ncnc3c2cnn3-c2ccccc2)CC1
→ 0%	10	2.5	35	1	2.0	-1.1
57) Cc1ccc2c(c1)N(CC(=O)N1CCN(C3CCCCC3)CC1)C(=O)CO2
→ -4%	-3	-0.5	-1	4	3.6	-5.8
58) COc1ccccc1/C=C\C=N\n1c(-c2ccc(Cl)cc2Cl)n[nH]c1=S
→ 7%	u	1.1	-11	8	0.4	-2.6
59) Cc1ccc(-c2nnc(-c3ccc(NC(=O)c4ccco4)cc3)o2)cc1
→ -8%	1	3.5	14	-5	5.0	15
60) CC(=O)c1ccc(N2CCN(C(=O)Cc3n[nH]c(=O)c4ccccc34)CC2)cc1
→ -1%	8	1.3	13	-2	-0.1	-2.5
61) O=C(NC1CCCCC1)C(c1ccncc1)N(C(=O)c1csnn1)c1ccccc1F (centres undefined)
→ x	4	3.5	24	-3	-0.1	2.9
62) OCC1(Cc2ccc(Cl)cc2)CCN(Cc2ccc(F)c(F)c2)CC1
→ u	4	5.3	0	-1	2.1	-0.4
63) COC1CCCN(Cc2c(C(=O)N3CCN(C4CCCCC4)CC3)nc3ccccn23)C1 (centres undefined)
→ -3%	3	-6.8	3	-17	104*	-1.6
64) CCCCCC(=O)Nc1ccc(N2CCN(CC)CC2)c(Cl)c1
→ u	-22	4.2	8	-2	4.5	-0.7
65) O=c1[nH][nH]c(-c2ccccc2)c1C=Nc1ccccc1Cl
→ 18%	-6	0.6	-7	x	-1.3	-2.0
66) CC1CN(C(=O)C(C)N2CCN(c3ccccc3Cl)CC2)CC(C)O1 (centres undefined)
→ -22%	-18	-5.5	-6	-2	-5.3	0.0
67) O=C(N1CCCCCC1)N1CCN(C(=O)N2CCOCC2)CC1
→ 18%	-1	-1.0	2	-4	-1.0	-0.7
68) COc1cccc(/C=C/C(=O)N2CCN(S(=O)(=O)c3ccccc3)CC2)c1OC
→ 13%	-12	-4.1	-3	0	-3.0	-4.2
69) COC(=O)C1CCN(C(=O)COc2ccc(Cl)cc2)CC1
→ 11%	8	1.3	3	x	-5.5	1.5
70) Cc1[nH]oc(=O)c1N=Nc1ccccc1
→ -10%	-5	1.1	3	3	-3.9	0.1
71) COc1cc(CNC(=O)CCn2nc(C)c3c(C)n(-c4ccccc4)nc3c2=O)cc(OC)c1OC
→ x	-18	2.1	0	-4	-0.9	7.1
72) CCC(C)(C)NC(=O)C(c1cccn1C)N(C(=O)Cn1nnc2ccccc21)c1ccc(OC)cc1 (centres undefined)
→ 0%	-4	0.1	7	-11	2.2	0.4
73) Cc1ccc(SCCOCCN2CCc3ccccc3C2)cc1
→ -9%	-27	1.6	2	-9	-1.4	-4.7
74) COc1ccc(/C=C/C=N/NC(=O)COc2ccc(OC)cc2)cc1
→ 2%	-5	0.0	10	-13	-5.2	-2.6
75) CC(C)CCN1CCN(C/C=C/c2ccco2)CC1CCO (centres undefined)
→ 18%	-16	1.4	-2	-10	4.3	-1.8
76) O=C1N(c2ccccc2)c2ccccc2C1(O)C(F)(F)F (centres undefined)
→ -2%	-14	-0.1	0	-8	1.5	-2.9
77) N#Cc1c(Nc2ccccc2)c(/C=N/NCCO)c[nH]c1=O
→ 13%	18	-7.0	1	-2	8.6	-0.4
78) CC(c1ccccc1)N1C(=O)/C(=C/c2ccncc2)SC1=S (centres undefined)
→ 8%	5	-0.6	-5	4	2.3	-0.5
79) Nc1ccc2[nH]ncc2c1
→ u	x	-0.2	14	x	u	1.2&18
80) CN1Cc2cc(C(=O)c3ccccc3O)cnc2NC1=O
→ 6%	11	-0.3	2	87*	0.7	1.3
81) CCOc1ccc(NC(=O)c2cc3ccccc3cc2O)cc1
→ 22%	30	-22	-8	x	-4.6	-0.5

# Screening results (PubChem)
